High-throughput results (PubChem BioAssay)
HNF4A DNA FP: change in binding of human HNF4 alpha to DNA. HNF4a-FITC DNA binding, fluorescence polarization, 1 h. 0.3% of 360,000 active. activity change, % at 10 µM. AID 1224865. P41235; in the data active means activity change above about 30%, passing the limit was not always enough;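 further: controls were the assay level and a saturating level of protein; the project sought stronger binding though the title names inhibitors; some compounds called inactive have numbers as strong as hits; positive values seem to mean higher polarization but the record does not say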
Target sequence (P41235 whole entry, looked up): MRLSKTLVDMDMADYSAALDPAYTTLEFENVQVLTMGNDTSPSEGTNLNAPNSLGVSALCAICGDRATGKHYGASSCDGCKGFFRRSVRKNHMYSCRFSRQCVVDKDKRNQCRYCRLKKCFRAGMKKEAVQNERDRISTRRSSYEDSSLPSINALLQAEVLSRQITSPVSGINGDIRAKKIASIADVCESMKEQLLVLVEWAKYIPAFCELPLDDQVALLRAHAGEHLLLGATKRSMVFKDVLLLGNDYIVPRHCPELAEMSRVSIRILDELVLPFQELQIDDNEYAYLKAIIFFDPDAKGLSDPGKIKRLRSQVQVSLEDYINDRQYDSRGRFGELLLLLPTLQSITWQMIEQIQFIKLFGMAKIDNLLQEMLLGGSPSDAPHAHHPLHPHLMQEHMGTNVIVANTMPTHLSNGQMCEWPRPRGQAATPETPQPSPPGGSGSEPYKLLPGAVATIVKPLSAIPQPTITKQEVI
Starred values were filed as active, the others as inactive. These rows are one share of the data; count on the stated rates, not on these rows.

entry	Compound	HNF4A DNA FP
1	COCCNC(=O)C1CCCN(C(=O)c2ccc(F)c(C)c2)CC1 (stereo unspecified)	0.7
2	CCCCC[C@H](C)N1C[C@@H](COCc2ccccc2)Oc2cc(N3CCC[C@@H]3CO)ccc2S1(=O)=O	-5.8
3	COCOCCn1cc(CN2CCS(=O)(=O)N(Cc3ccc(-c4ccc(C)cc4)cc3)C(C(C)C)C2=O)nn1 (stereo unspecified)	5.1
4	Cc1ccc(S(=O)(=O)N2C[C@H]3[C@H]4C(=O)N(Cc5ccccc5)C(=O)[C@H]4CC(=O)[C@H]3[C@@H]2c2ccccc2)cc1	-1.6
5	COc1cc(CN2C(=O)C(CCc3ccccc3)ON=C2c2cnccn2)cc(OC)c1 (stereo unspecified)	3.8
6	COc1cccc(CNc2nc3cc(-c4ccccc4CO)sc3c(=O)n2C)c1	1.9
7	CN(CCc1ccccc1)C(C(=O)c1ccc2c(c1)OCO2)c1nnnn1-c1ccccc1NC(=O)OC(C)(C)C (stereo unspecified)	4.8
8	CC1(C(=O)NCc2ccc(C(F)(F)F)cc2)CCN1Cc1ccccc1OC(F)F (stereo unspecified)	-1.2
9	O=c1cc(CN2CCCCC2)c2ccccc2o1	0.4
10	CC(C)c1ccc(C(=O)OCC(=O)Nc2cccc(S(=O)(=O)NC3=NCCC3)c2)cc1	1.7
11	COc1ccc([C@H]2C[C@@H](n3cc(-c4ccc(F)cc4)nn3)[C@H](O)CN2C(=O)C2CCCCC2)cc1	-1.5
12	COc1cc(-c2nnc(NC(=O)CS(=O)(=O)c3ccc(Cl)cc3)o2)cc(OC)c1OC	-1.9
13	CC(=O)c1ccc(OC2(C)CCN(Cc3ccc4ccccc4c3)C2)cc1 (stereo unspecified)	-8.9
14	COc1ccc(C(C(=O)NC2CCCC2)n2c(Cc3cc(F)cc(F)c3)nc3ccccc32)cc1 (stereo unspecified)	-4.3
15	C[C@H](c1ccccc1)N1C[C@@H](COCc2ccccc2)Oc2cc(N3CCC[C@H]3CO)ccc2S1(=O)=O	7.1
16	CC(=O)Nc1ccc(NC(=O)c2cc(-c3cc(F)ccc3OCC3CCCO3)n[nH]2)cc1 (stereo unspecified)	0.1
17	O=C(O)c1ccc(Cl)c(NC(=O)C2CCN(S(=O)(=O)c3ccc4c(c3)OCCO4)CC2)c1	-0.7
18	CC1(C(=O)NS(=O)(=O)c2cccc(Cl)c2)CCN1C(=O)c1ccccc1CCc1ccccc1 (stereo unspecified)	-0.1
19	CCOc1ccc(CCN2C(=O)C(=O)N([C@@H](Cc3ccccc3)CN3CCC[C@H]3CN3C(=O)C(=O)NC[C@@H]3CC(C)C)C[C@@H]2Cc2ccc(O)cc2)cc1	-3.0
20	Cn1cnc(S(=O)(=O)N2CCCC(c3cc(C(=O)Nc4ccc(F)c(Cl)c4)no3)C2)c1 (stereo unspecified)	-0.2
21	CSc1ccc(Cn2c(C)c(C(=O)NCc3ccc(C(C)C)cc3)sc2=O)cc1	1.1
22	OC(c1ccc(Cl)c(F)c1)c1ncc(-c2ccccc2C(F)(F)F)[nH]1 (stereo unspecified)	-0.1
23	NC(Cc1ccc(Cl)cc1)c1csc(Nc2ccc(-c3ccccc3)nn2)n1 (stereo unspecified)	3.6
24	CC(C)NC(=O)N(C)C[C@H]1OCCCC[C@@H](C)Oc2ccc(NC(=O)C3CCCCC3)cc2C(=O)N([C@H](C)CO)C[C@@H]1C	-0.8
25	COc1cc(C(=O)N2CCCC(c3cc(C(=O)NCc4ccccc4)no3)C2)cc(OC)c1C (stereo unspecified)	2.3
26	CCOC(=O)[C@]12CCCC=C1N(Cc1ccco1)C(=O)[C@H](CC(=O)N1CCCCC1)C2	-2.7
27	CC(C)C[C@H]1CNC(=O)C(=O)N1C[C@H]1CCCN1C[C@H](CC(C)C)N1C[C@H](Cc2ccccc2)N(CC2CCCCC2)C(=O)C1=O	-3.9
28	S=c1nc(-c2ccccn2)c(-c2ccccn2)n[nH]1	2.1
29	CCOC(=O)c1cc(OC(=O)Cc2ccc(OC)c(S(=O)(=O)N3CCOCC3)c2)cc(C(=O)OCC)c1	-0.1
30	CC1(c2nnnn2-c2ccc3c(c2)OCCO3)CCC(=O)N1CC1CCCCC1 (stereo unspecified)	-0.4

(more compounds)
entry	Compound	HNF4A DNA FP
31	CCc1nc2c(OCc3ccc(F)c(F)c3)cccn2c1N(C)C(=O)c1ccco1	0.4
32	Cc1ccc2cc(NC(=O)C3(C)CCN(C)C3)ccc2n1 (stereo unspecified)	1.0
33	CC(C)(C)NC(=O)C1c2ccccc2OCC(=O)N1CCc1ccccc1 (stereo unspecified)	4.4
34	O=C(OC1CC2CC1[C@H]1CCCCN1C2=O)N1CCN(C(=O)c2ccccc2)CC1 (stereo partly specified)	2.1
35	CCCCCCCCN1C(=O)[C@H](CC(=O)NCCc2ccccc2OC)C[C@@]2(C(=O)OC)CC(C)(C)CC=C12	2.4
36	COc1cccc(Cn2c(Cn3c(-c4cnccn4)nc4ccccc43)nc3ccccc32)c1	0.7
37	CS(=O)(=O)Nc1ccc(-c2cnc3cccnn23)cc1	-5.4
38	COc1cc(CNc2ncnc3c2ncn3[C@H]2CN(Cc3ccc4c(c3)OCO4)C[C@@H](CO)O2)cc(OC)c1OC	1.4
39	CC(C)C(=O)N1CCC1(C)C(=O)Nc1ccc2[nH]ccc2c1 (stereo unspecified)	2.6
40	COCCN(Cc1ccc(C)cc1)C(=O)[C@H]1O[C@@H](n2cnc3c(N)ncnc32)[C@H](O)[C@@H]1O	0.7
41	CCOc1ccc(CCN2C(=S)N([C@@H](Cc3ccccc3)CN3CCCC3CN3C(=S)NC[C@@H]3Cc3ccccc3)C[C@@H]2Cc2ccc(O)cc2)cc1 (stereo partly specified)	3.3
42	CC1(C(=O)NS(=O)(=O)C2CC2)CCN(C(=O)c2cc3ccccc3s2)C1 (stereo unspecified)	-1.1
43	COC(=O)[C@@]1(Cc2ccc(F)cc2)[C@H]2c3cc(C(=O)N(C)C)n(CCF)c3C[C@H]2CN1C(=O)c1ccccc1	3.8
44	CC1(C(=O)Nc2ccc(Cl)c(Cl)c2)CCN1Cc1ccccc1OC(F)F (stereo unspecified)	3.0
45	O=C1Nc2ccccc2-n2nnnc2C1N1CCN(C(=O)C2CCCO2)CC1 (stereo unspecified)	2.1
46	COCOc1cccc(CN2CCC2(C)C(=O)NCCNC(C)=O)c1 (stereo unspecified)	-2.8
47	CCCCNC(=O)C(NC(=O)c1cccnc1OC)C(=O)c1ccccc1 (stereo unspecified)	-5.8
48	COC(=O)c1ccc(NS(=O)(=O)c2c(C)nc3sccn3c2=O)cc1	-0.6
49	CCCCNC(=O)C1(C)CCC(=O)N1CC(F)(F)F (stereo unspecified)	-4.4
50	CN(C)CCNc1ncnc2c1ncn2[C@H]1CN(C)C[C@@H](CO)O1	-1.1
51	O=C(NC(c1ccc(-c2ccccc2)cc1)c1cnccn1)C1CCN(CCOc2ccc(Cl)cc2Cl)CC1 (stereo unspecified)	7.3
52	Oc1ccc(C[C@@H](CN2CCC[C@@H]2CN2C(=S)NC[C@@H]2Cc2ccccc2)N2C[C@H](Cc3ccccc3)N(CCc3ccccc3)C2=S)cc1	-4.2
53	CC(=O)Nc1cccc(-c2ccnc3c2CC(C)(C(=O)Nc2cccc(C(C)=O)c2)O3)c1 (stereo unspecified)	5.1
54	COc1ccc(-c2cnc3c(NC(C)=O)cc(-c4cc(F)ccc4OC)cn23)cc1OC	3.2
55	C[C@@H]1CN([C@H](C)CO)C(=O)CCCn2nncc2CO[C@H]1CN(C)Cc1cccc2c1OCCCO2	1.8
56	CCCC(=O)N1CCC1(C)C(=O)Nc1ccccn1 (stereo unspecified)	-2.0
57	COc1ccc(OC)c(S(=O)(=O)NC(=O)C2(C)CCN2C(=O)C2(c3ccc(Cl)cc3)CC2)c1 (stereo unspecified)	2.2
58	CC(C)c1cn(CC[C@@H]2CC[C@H](NS(=O)(=O)c3ccc(F)cc3)[C@@H](CO)O2)nn1	-1.1
59	COc1cc(-c2cc(=O)c3ccc(O)cc3o2)cc(OC)c1OC	-7.9
60	CCNC(=O)C1(C)CCN(C(=O)c2ccc3c(c2)OCO3)C1 (stereo unspecified)	1.4

Entries shown so far with a CF3 group (three):
entry	Compound	HNF4A DNA FP
8	CC1(C(=O)NCc2ccc(C(F)(F)F)cc2)CCN1Cc1ccccc1OC(F)F (stereo unspecified)	-1.2
22	OC(c1ccc(Cl)c(F)c1)c1ncc(-c2ccccc2C(F)(F)F)[nH]1 (stereo unspecified)	-0.1
49	CCCCNC(=O)C1(C)CCC(=O)N1CC(F)(F)F (stereo unspecified)	-4.4

Returning to the listing, starting 7 compounds before the break.
item	SMILES	HNF4A DNA FP
54	COc1ccc(-c2cnc3c(NC(C)=O)cc(-c4cc(F)ccc4OC)cn23)cc1OC	3.2
55	C[C@@H]1CN([C@H](C)CO)C(=O)CCCn2nncc2CO[C@H]1CN(C)Cc1cccc2c1OCCCO2	1.8
56	CCCC(=O)N1CCC1(C)C(=O)Nc1ccccn1 (stereo unspecified)	-2.0
57	COc1ccc(OC)c(S(=O)(=O)NC(=O)C2(C)CCN2C(=O)C2(c3ccc(Cl)cc3)CC2)c1 (stereo unspecified)	2.2
58	CC(C)c1cn(CC[C@@H]2CC[C@H](NS(=O)(=O)c3ccc(F)cc3)[C@@H](CO)O2)nn1	-1.1
59	COc1cc(-c2cc(=O)c3ccc(O)cc3o2)cc(OC)c1OC	-7.9
60	CCNC(=O)C1(C)CCN(C(=O)c2ccc3c(c2)OCO3)C1 (stereo unspecified)	1.4
61	O=C(NCc1ccccc1)C1C(c2ccc3c(c2)OCO3)=Nc2ccccc2N1C(=O)c1cccc(C(F)(F)F)c1 (stereo unspecified)	-2.8
62	O=c1[nH]c(=S)[nH]c2c1[C@H](C1CC1)O[C@H](CCc1ccccc1)C2	-8.4
63	COc1ccc(CCNC(=O)CSC2=NS(=O)(=O)c3cc(F)ccc3N2)cc1OC	1.6
64	O=C(Nc1cccs1)Nc1nnc([C@@H]2C[C@H](O)[C@@H](CO)O2)s1	0.8
65	OC[C@@H]1CN(Cc2ccccc2)C[C@H](n2cnc3c(N4CCN(c5ccccc5)CC4)ncnc32)O1	-2.4
66	O=C(CC[C@H]1O[C@@H](n2ccc(=O)[nH]c2=O)[C@H](O)[C@@H]1O)NCC1CCCO1 (stereo partly specified)	1.4
67	CN(c1cc2c(c3c1ccn3C)C1CCC2O1)C1CCCCC1 (stereo unspecified)	-2.2
68	O=C(Cn1nnc(-c2ccccc2)c1COc1ccc2ccccc2c1)NCC1CC1	-5.7
69	O=S1(=O)N[C@@H](Cc2ccccc2)COc2cccc(N3CCC[C@@H]3CO)c21	4.1
70	COc1ccc(NC(=O)C(c2ccc(OC)cc2)n2c(=O)c(-c3cc4ccccc4[nH]3)nc3ccccc32)cc1 (stereo unspecified)	3.1
71	O=C(C(O)c1ccc(Br)cc1)N1CCC(Nc2ccc3[nH]ncc3c2)CC1 (stereo unspecified)	-1.8
72	CC1(c2nnnn2Cc2ccccc2)CCC(=O)N1CC(F)(F)F (stereo unspecified)	-0.1
73	COC(=O)c1c(N)[nH]c(C(=O)c2ccccc2)c1-c1ccc(Cl)cc1	-0.2
74	COc1ccc(Cc2c(C(C)(C)C)nc3c(C)cc(Br)cn23)c(C)c1	-1.9
75	COC(=O)C1(C(=O)OC)c2ccccc2CN(S(=O)(=O)c2ccc(C)cc2)C1CC(C)=O (stereo unspecified)	4.4
76	COc1ccc(Cl)cc1-c1cc(C(=O)NCc2ccc(C(F)(F)F)cc2)[nH]n1	-1.7
77	COCCNc1nc(NCCOc2ccccc2Cl)c2sccc2n1	3.4
78	COc1ccc(CNC(=O)C2(C)Cc3c(-c4ccccc4)ccnc3O2)cc1OC (stereo unspecified)	2.0
79	Cc1c(C(=O)NCc2cccs2)sc(=O)n1Cc1ccc(S(=O)(=O)N(C)C)cc1	0.2
80	CC1(C(=O)NCc2cccc(Cl)c2)Cc2c(-c3ccc(C(N)=O)cc3)ccnc2O1 (stereo unspecified)	-4.7
81	Cc1ccc2ccccc2c1C(O)c1ncc(-c2ccc(C(F)(F)F)cc2)[nH]1 (stereo unspecified)	-2.2
82	Cc1ccccc1S(=O)(=O)NC(=O)C1(C)CCN1C(=O)Cc1ccc(Cl)cc1Cl (stereo unspecified)	0.9
83	CCOC1=CC2=C(C(=O)C(Cl)=CC2=O)[C@@H]2CN(S(=O)(=O)c3ccc(C)cc3)[C@@H](c3ccccc3)[C@H]12	6.9
84	OC[C@H]1O[C@@H](c2nc3ccc(-c4nc(-c5cccs5)no4)cc3[nH]2)C[C@@H]1O	5.9
85	CC(C)(C)n1nnnc1C(c1ccccc1)N1CCN(c2ccc(F)cc2)CC1 (stereo unspecified)	-0.1
86	CC(C)CCC[C@](C)(O)c1ccc(C(=O)O)cc1O	0.8
87	O=S1(=O)C[C@@H](N2CC[C@@H](O)C2)[C@H](COCc2ccccc2)N1	-0.2
88	Cc1ccc(Cc2c(-c3cccc(Cl)c3)nc3ccc(C)cn23)cc1	2.1
89	CC1(C(=O)Nc2ccc(F)cc2F)CCN1C(=O)Cc1ccccc1Cl (stereo unspecified)	-0.8
90	COC(=O)N1CCCCC1c1cc(C(=O)NCc2cccnc2)no1 (stereo unspecified)	4.7

The list goes on.
item	SMILES	HNF4A DNA FP
91	COc1ccc2oc(C(=O)OCC(=O)Nc3ccc(C)c(S(=O)(=O)N4CCOCC4)c3)c(C)c2c1	2.2
92	CCc1nc2ccc(C(=O)NCCN3CCNC3=O)cn2c1N(CC)Cc1cccc(Br)c1	2.1
93	CCOc1ccc(OCCC(=O)Nc2ccccc2C(=O)NC2CC2)cc1	-1.6
94	COc1cccc(C(O)c2nc(-c3ccc(OC)nc3)cs2)c1 (stereo unspecified)	3.7
95	COc1ccccc1C(C(=O)c1ccccc1)c1ccc(O)cc1 (stereo unspecified)	-2.7
96	CN(Cc1ccc(C(F)(F)F)cc1)C(=O)[C@H]1O[C@@H](n2ccc(=O)[nH]c2=O)[C@H](O)[C@@H]1O	-1.5
97	CCc1ccc2c(c1)NC(=O)C2(C)Cc1ccc(F)cc1 (stereo unspecified)	-1.5
98	CCCCNC(=O)C1(C)CCCCN1C(=O)c1ccc2c(c1)C(C)(C)CCC2(C)C (stereo unspecified)	-0.3
99	O=C(O)c1cc(Cl)n[nH]c1=O	3.8
100	CC(CC(=O)Nc1ccc2c(c1)c(=O)n(C)n2-c1ccccc1F)c1ccccc1 (stereo unspecified)	6.0
